Source: PubChem
gsp antag = gsp mutant antagonism; 340,000 compounds, 0.4% hits; Potency, µM (top dose mostly 76.9 µM), without a hit: top-dose activity change, negative = inhibition, hits mostly inhibitors; gsp-mutant cells, cAMP HTRF, 30 min; control for the full effect not named in the record; AID 624288; active = falling curve of any shape with a large fitted effect; inconclusive = falling curve, mostly with a smaller effect; inactive = flat or rising curve; cell line not stated here;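 also: intracellular cAMP measured with PDE inhibitor Ro 20-1724 present during compound exposure; potency is read from the fitted curve at half-maximal effect; % is scaled to controls: 0 for no effect and ±100 for the full control effect; nearly all actives have a fitted effect of over 65% in size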
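HTRF cAMP read-out (cAMP-d2 plus anti-cAMP antibody-K in lysis buffer, 30 min RT). Before lysis, cells are exposed to compounds with […] for 30 min at 37C in DPBS containing Ca/Mg, BSA and Tween 20.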
gsp ag = activates gsp, the McCune-Albright syndrome mutation. Potency, µM (highest dose often 76.9 µM), without a hit: top-dose activation (cAMP increase), hits mostly activators. AID 624287. 340,000 compounds, 0.13% hits. gsp mutant cells, cAMP HTRF, 30 min; control for the full effect not named in the record; active = well fitted activation curve with a large enough effect; inconclusive = small, poorly fitted or top-dose-only effect, or another doubt; inactive = no such curve, though single readings can be large or run the other way; cell line not stated here;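 also: phosphodiesterase inhibitor Ro 20-1724 added with compounds to block cAMP breakdown; potency is read from the fitted curve at half-maximal effect; nearly all actives have a fitted effect of over 60% in size; about a fifth of the inactives were tested at one dose only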
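Cells stably selected in G418 were plated at 2000/well, grown 16-24 hr, then given compounds in DMSO with the PDE inhibitor […] (300 uM solution added) for 30 min at 37C; cAMP was read by HTRF.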
Menin-MLL FL inh = displaces fluorescein MLL peptide from human menin. 290,000 tested, under 10 active. Fluorescence polarization, fluorescein-MLL peptide displacement from menin. FP activity change, % at 61.4 µM; inconclusive = falling polarisation curve, or a change in total fluorescence; inactive = total fluorescence flat and polarisation flat or rising; no compound was filed as active; the % refers to the polarisation; negative = inhibition;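 also: % of control where 0% means no effect; inhibitors lower the polarisation; unlabelled MLL peptide was the positive control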
TRPML1 agonist = agonists of human TRPML1 channel; AID 624414; Q9GZU1; 410,000 compounds, 0.12% hits; TRPML1-expressing cells, Ca2+ dye fluorescence, FDSS; host cell line not named in the record; reference of the full effect not given here; activation, % (concentration not given with the values); in the data active = activation above about 50%; inconclusive = about 30% to 50%; inactive = below about 30%; also: 0% is about no effect; the text of the record puts the active cut at 80%
Target sequence (Q9GZU1 whole entry, looked up): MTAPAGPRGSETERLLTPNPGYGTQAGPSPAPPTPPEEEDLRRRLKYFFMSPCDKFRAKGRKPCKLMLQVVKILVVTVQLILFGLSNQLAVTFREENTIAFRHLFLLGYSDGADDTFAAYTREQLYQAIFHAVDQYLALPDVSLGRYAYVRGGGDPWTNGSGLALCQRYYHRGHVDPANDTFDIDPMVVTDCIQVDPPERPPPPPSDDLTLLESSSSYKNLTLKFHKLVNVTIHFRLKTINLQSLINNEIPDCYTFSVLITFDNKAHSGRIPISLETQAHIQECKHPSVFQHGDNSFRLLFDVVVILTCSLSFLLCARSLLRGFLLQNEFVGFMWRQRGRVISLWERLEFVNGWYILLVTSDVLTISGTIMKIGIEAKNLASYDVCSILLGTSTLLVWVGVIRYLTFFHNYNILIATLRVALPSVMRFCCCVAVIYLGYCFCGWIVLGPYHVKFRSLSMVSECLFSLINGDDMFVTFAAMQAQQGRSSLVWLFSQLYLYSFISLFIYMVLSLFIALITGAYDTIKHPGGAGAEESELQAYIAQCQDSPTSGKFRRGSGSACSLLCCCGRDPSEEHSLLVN
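TRPML1-DL cells, Tet-induced overnight (~16 h, 37 degrees C), loaded 45-90 min at room temperature with Ca8 no-wash calcium dye plus quencher. FDSS fluorescence: 10 s baseline, compound pin-transfer, 110 s agonist read, then EC80 54-4 (4uM final) and 110 s antagonist read.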
ClpP mod = qHTS Assay for Activators of ClpP | Potency, µM (top dose mostly 57.5 µM), for the others: at the highest dose activity change, negative = active | 340,000 compounds, 1.9% hits | ATP-dependent Clp protease proteolytic subunit (Bacillus subtilis (strain 168)), P80244 | purified B. subtilis ClpP, FRET peptide cleavage, 20 min; active = well fitted falling curve with a large enough effect; inconclusive = small, poorly fitted or top-dose-only effect; inactive = no such curve, though single readings can be large or run the other way; also: potency is read from the fitted curve at half-maximal effect; the source files actives as falling curves though it sought activators and does not explain the sign; nearly all actives have a fitted effect of over 65% in size; many hits overshoot -100%
Target sequence (P80244 whole entry, looked up): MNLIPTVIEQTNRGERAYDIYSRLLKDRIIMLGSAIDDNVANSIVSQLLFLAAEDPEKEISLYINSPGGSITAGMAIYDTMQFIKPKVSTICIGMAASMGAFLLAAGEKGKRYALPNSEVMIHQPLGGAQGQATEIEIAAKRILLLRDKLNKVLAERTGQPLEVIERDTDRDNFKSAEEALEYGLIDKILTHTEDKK
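ClpP 10 microg/mL final, pH 8 Tris/KCl buffer with BSA, glycerol, Tween-20; compound pinned in; FRET-FV substrate; RT 20 min; Ex320/Em430; ΔFRET vs ADEP 5.8 microM, DMSO, no enzyme.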
TRPML1 blocker = human mucolipin-1 channel inhibition; Q9GZU1; TRPML1-inducible cells, Ca2+ dye fluorescence, FDSS; active compounds read low; inhibition of EC80 agonist-evoked calcium signal; activity change, negative = inhibition, % (test concentration not listed); 390,000 compounds, 0.02% hits; in the data active means activity change below about -50%; inconclusive means about -30% to -50%; inactive means above about -30%;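 also: stimulus is agonist 54-4 at its EC80 concentration; % is scaled to controls: 0 for no effect and ±100 for the full control effect; compound concentration not given in the record; the text of the record puts the active cut at -80%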
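Calcium fluorescence in TRPML1-DL cells induced overnight with Tet: a 110 s read after compound pin addition, then a 110 s antagonist read after challenge with 54-4 at 4 uM final (EC80).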
Starred values were filed as active, the others as inactive; ? = inconclusive; nt = no result given; & = joins results of further samples; [ ] = dose if it differs, or a comment.

molecule,gsp antag,gsp ag,Menin-MLL FL inh,TRPML1 agonist,ClpP mod,TRPML1 blocker
c1ccc(-c2csc3nnc(SCc4ccc5c(c4)OCO5)n23)cc1,-22%,-29%,-1.2,3.9,-4.0%,28
CC(=O)Nc1ccc(SC[C@H](C)CN2CC[C@H](O)CCC2=O)cc1,8%,-16%,nt,-0.8&-0.1,1.4%&-1.5%,-14
COc1cc(C=c2c3ccccc3n3c2cc(-c2ccccc2)[n+]3C)cc(OC)c1OC,-12%,0%,nt,1.1,-1.2%,8
C/C(=N/NC(=O)c1ccc(C(C)(C)C)cc1)c1cccnc1,10%,32%,nt,0.3,0.9%,3
CCCOc1ccccc1NC(=O)c1c(-c2ccccc2)noc1C,?,-23%,-0.8,1.1,0.5%,0
CCOc1c2ccc(C(=O)NCc3ccc(OC(F)(F)F)cc3)cc2nn1CC,-6%,0%,1.8,0.7,4.2%,7
O=C(Nc1cc(=O)[nH]c2nc(-c3ccccc3)nn12)c1ccc(Cl)cc1,-4%,8%[15.4 µM],4.3,-0.1,nt,-2
CC(Sc1nnc(C(C)N(C)C)n1-c1ccc(Cl)cc1)C(=O)Nc1ccc2c(c1)OCO2 (configuration not stated),0%,19%,0.8,2.8,0.5%,11
COc1cccc(Nc2nc3ccccc3c(=O)[nH]2)c1,-6%,-3%[15.4 µM],-8.2,-0.2,nt,4
Cc1cccc(NC(=O)CNC(=O)COc2cccnc2[N+](=O)[O-])c1C,6%,-44%[inhibitor],nt,-0.5,-2.9%,-3
Cc1cc(C(=O)CN2C(=O)NC(CC(C)C)C2=O)c(C)n1C1CC1 (configuration not stated),-3%,-31%[inhibitor],nt,2.0,nt,-3
COc1cc2c(cc1NCc1ccc3c(c1)OCO3)oc1ccccc12,-1%,-30%[inhibitor],0.7,2.5,25µM*,24
CN1CCN(S(=O)(=O)c2ccc3c(c2)NC(=O)CS3)CC1,-3%,5%,nt,-0.1,-2.3%,-13
O=C(NCc1ccccc1Cl)c1nnc(CS(=O)(=O)c2ccccc2)o1,4%,21%,1.5,1.3,-0.7%,12
O=C(NC(=S)Nc1cccc(S(=O)(=O)NC2=NCCC2)c1)c1cc(-c2ccco2)nc2ccccc12,13%,4%[15.4 µM],-1.0,1.7,nt,-2
Cc1ccccc1C(=O)NC1CCN(CC(=O)NCc2ccc(F)cc2)CC1,5%,-3%,5.6,0.8,nt,-2
O=C(O)c1cc(NS(=O)(=O)c2ccc(F)cc2)cc(NS(=O)(=O)c2ccc(F)cc2)c1,18%,?,nt,1.8,-1.2%,10
CCCSc1ncc(Cl)c(C(=O)Nc2ccc(CC)cc2)n1,nt,nt,nt,4.4,-1.4%,46
Cc1nn(-c2ccccc2)c2sc(C(=O)Nc3cccc(Br)c3)cc12,nt,nt,nt,-0.9,?,-17
Cc1sc2ncnc(N3CCC(C(=O)Nc4ccccc4C(C)(C)C)CC3)c2c1C,?,-4%[15.4 µM],nt,-0.2,1.4%,9
COc1ccc(Cn2c(=O)[nH]c3cc(C(=O)NCCC(C)C)ccc3c2=O)cc1,nt,nt,nt,-0.4,-0.5%,16
N#Cc1c(NC(=O)C2CCCO2)sc2c1CCCCC2 (configuration not stated),-3%,-15%,4.0,1.3,nt,7
COc1ccc(C(=O)NC(=S)Nc2ccc(S(=O)(=O)Nc3cc(OC)nc(OC)n3)cc2)cc1,-26%,-4%,-4.6,0.4,nt,26
CC(=O)c1ccc(OCC(=O)N2CCCC(Nc3ccc(C)c(C)c3)C2)cc1 (configuration not stated),-12%,-8%[15.4 µM],nt,-0.9,-2.0%,-18
Cc1c(C(=O)n2cnc3ccccc32)cccc1[N+](=O)[O-],2%,31%,5.6,-0.5,-0.2%,3
Cc1ccc(CCNC(=O)C2CCCN(Cc3nc(-c4cccc(Cl)c4)oc3C)C2)cc1 (configuration not stated),nt,nt,nt,3.5,-2.8%,-13
COc1ccccc1Nc1c2c(nc3ccc(NC(=O)/C=C/c4cccc(OC)c4OC)cc13)CCCC2,nt,nt,nt,1.4,-1.7%,2
CCOc1ccc2nc(SCc3ccc(CC(=O)O)cc3)c(C#N)cc2c1,-4%,-2%[15.4 µM],5.8,-0.1,nt,-1
COc1ccc(-c2cc(C(=O)NCCCn3ccnc3)no2)cc1,-4%,12%,-6.3,0.9,-20%,-6
COc1c(Cl)cc(Cl)cc1C(=O)Nc1ccc(CN2CCCCC2)cc1,9%,10%,-1.4,-0.4,nt,11
CC1CCCC(C)N1S(=O)(=O)c1ccc(NC(=O)CCn2cnc3ccccc3c2=O)cc1 (configuration not stated),6%,-1%,2.9,-0.2,-0.5%,-2
Cc1cc2nc(SCCN3CCCC3)[nH]c2cc1C,1%,0%,-0.3,1.1,2.3%,25
Cc1ccc(CCNC(=O)C2CCN(c3nn4c(=O)cc(C)nc4s3)CC2)cc1,1%,-5%,1.2,-0.1,-1.3%,20
N#Cc1ccc(C(=O)Nn2cnnc2)cc1,5%,1%,-0.4,0.6,-0.1%,-20
Nc1cc(Cl)c(N)cc1Cl,-19%,44%,3.3,-0.1,-2.9%,12
O=C1CN(C(=O)COC(=O)c2cc(S(=O)(=O)N3CCOCC3)ccc2Cl)c2ccccc2N1,0%,-8%[15.4 µM],-0.1,1.0,nt,22
CC(C)CC1C(=O)N(Cc2cn(CCC3OCCCO3)nn2)CCS(=O)(=O)N1Cc1ccc(-c2ccc(F)cc2)cc1 (configuration not stated),nt,?,nt,-0.2,0.1%,-11
COc1ccc2c(C=O)c[nH]c2c1,-1%,8%[15.4 µM],3.9,0.1,-1.3%,12
CC(OC(=O)c1ccco1)C(=O)Nc1ccc(Cl)cn1 (configuration not stated),-1%,-20%,-1.5,-0.7,nt,-19
CN1CCSc2ccc(C(=O)NCc3ccccc3F)cc21,?,2%,-2.2,1.2&0.7,3.8%&4.4%,0&34
COC(=O)c1ccc(Cn2cnc3cnccc32)cc1,9%,11%,1.9,0.5,-8.6%,-5
O=C(NCCc1c[nH]c2ccccc12)c1ccc2nc[nH]c2c1,2%,-8%[15.4 µM],nt,-0.1,nt,11
Cc1cc(C(=O)Nn2cnnc2)cs1,10%,5%,-1.1,0.2,0.3%,-2
O=C(CSc1cccs1)Nc1ccc(Cl)cc1,-5%,4%[15.4 µM],-1.2,2.9,nt,-3
CN(C(=O)NC(=O)C1=C(N2CCOCC2)/C(=C/c2ccccc2)CC1)S(C)(=O)=O,-2%,0%,1.6,-0.1,97%,3
COc1ccc(OC)c(NC(=O)Cn2c(=O)c3cccn3c3ccccc32)c1,nt,nt,nt,2.0,-5.9%,-25
c1ccc(-c2nn3c(C4CCCCC4)nnc3s2)nc1,8%[15.4 µM],-4%,-1.7,0.9,-0.2%,1
COc1ccc(NS(=O)(=O)c2ccc(OC)c(NC(=O)CNC(=O)c3ccc(OC)cc3)c2)cc1,-23%,15%,nt,1.7,1.8%,9
CCOC(=O)N1CCN(C(=O)COC(=O)CN(C)S(=O)(=O)c2ccc(NC(C)=O)cc2)CC1,13%,5%,nt,1.1,0.8%,39
O=C(NCc1ccccc1Cl)C(=O)c1c[nH]c2ccccc12,-1%,-27%,-6.4,0.2,0.1%,-10
O=S(=O)(c1ccc2c(c1)CCC2)N1CCNCC1,11%,-32%[15.4 µM],nt,1.0,28µM*,-8
O=C(c1nnsc1S(=O)c1ccc(Cl)cc1)N1CCOCC1 (configuration not stated),-2%,3%[15.4 µM],-1.6,7.8,nt,11
COc1ccc(C(=O)NCCn2cc(SC(C)c3ccccc3)c3ccccc32)cc1OC (configuration not stated),nt,nt,nt,0.6,-2.9%,2
COC(=O)C(O)(CC(=O)Nc1ccc(OC(F)(F)F)cc1)C(F)(F)F (configuration not stated),1%,-4%,2.4,-0.2,0.6%,11
CCC(=O)c1ccc(OCC(=O)Nc2ccccc2C(=O)NC2CC2)cc1,20%,1%,nt,0.4,-3.9%,24
COc1ccc(S(=O)(=O)N(C)c2ccc(C(=O)NCC3CCCO3)cc2)cc1 (configuration not stated),-5%,7%,-0.8,0.2,-8.7%,-4

The list goes on.
molecule,gsp antag,gsp ag,Menin-MLL FL inh,TRPML1 agonist,ClpP mod,TRPML1 blocker
Cc1cccc(NC(=O)CSc2nnc(NC(=O)C3CC3)s2)c1C,-17%,-14%[15.4 µM],-0.6,-0.4,nt,6
Cc1cccc(-n2c(CNC(=O)c3ccc(S(=O)(=O)N4CCCCC4)cc3)n[nH]c2=S)c1,6%,-3%[15.4 µM],-1.8,-0.4,nt,-11
CCN(CC)C(=O)C1CCCN(c2ncnc3c2cnn3-c2cccc(C)c2)C1 (configuration not stated),-24%,-54%[inhibitor],0.4,-0.5,-4.9%,42
O=C(COC(=O)CNC(=O)c1ccc(Cl)cc1Cl)NC(=O)NCc1ccccc1,-8%,-29%,nt,-0.6,1.7%,-1
CN(CC(=O)NCc1cccs1)S(=O)(=O)c1cccc2nsnc12,5%,-3%,1.7,-0.9,1.1%,-1
Cc1ccc(OC2CCN(C(=O)[C@H]3O[C@@H](n4cnc5c(N)ncnc54)[C@H](O)[C@@H]3O)CC2)cc1,nt,nt,nt,0.7,-0.1%,-7
CCc1nnc(NC(=O)c2cc(-c3ccco3)nc3ccccc23)s1,-53%,10%[15.4 µM],11,-1.0,nt,-10
Cc1nn(C)cc1/C=N\NC(=O)Cc1ccc([N+](=O)[O-])cc1,6%,4%,0.3,-0.6,1.5%,-4
C=CCn1c(SCC(=O)Nc2cc(C)on2)nnc1-c1ccncc1,nt,-44%[inhibitor],nt,0.1,0.4%,17
O=C(CN1CCOCCOCCOCCOCC1)Nc1ccccc1,13%,-1%,-3.2,1.2,1.2%,39
COc1ccc(NC(=O)c2n[nH]c(=O)c3ccccc23)cc1S(=O)(=O)N1CCCCC1,16%,1%,8.4,-0.7,1.9%,7
